# B2AR ag: agonists of human beta-2 adrenergic receptor inducing internalization. actives 0.43% (n = 340,000). AID 504454. response, % (test concentration not listed). Am2.2-beta2AR cells, FAP receptor internalization, flow cytometry; reference of the scale not given here. P07550;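 active means response above a set limit, near 3 SD of response in nonfluorescent compounds, cut at about 42% in these data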;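 further: stock transfer was 100 nL into about 11 µL; a reference agonist was the positive control; negative values mostly stem from fluorescent compounds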
# Target sequence (P07550 whole entry, looked up): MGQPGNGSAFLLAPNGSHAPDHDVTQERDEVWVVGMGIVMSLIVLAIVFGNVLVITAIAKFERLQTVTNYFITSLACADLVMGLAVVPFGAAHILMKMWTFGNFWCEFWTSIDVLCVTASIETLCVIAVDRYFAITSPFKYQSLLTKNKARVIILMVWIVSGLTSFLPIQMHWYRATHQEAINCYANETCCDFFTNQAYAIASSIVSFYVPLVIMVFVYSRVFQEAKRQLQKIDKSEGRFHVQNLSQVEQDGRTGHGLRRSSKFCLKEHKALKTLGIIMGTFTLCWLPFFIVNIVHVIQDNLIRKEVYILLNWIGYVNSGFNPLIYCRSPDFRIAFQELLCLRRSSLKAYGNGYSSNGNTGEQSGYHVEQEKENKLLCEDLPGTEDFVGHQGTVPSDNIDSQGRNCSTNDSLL
# RanGTP-Impb inh: disruptors of Ran-importin-beta complex formation – biochemical, FRET, CFP-Ran, YFP-importin-beta, homogeneous, primary screen. cell-free CFP-Ran/YFP-importin-beta FRET ratio. inhibition, % (no concentration beside the values). actives 1.1% (n = 300,000);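 active means most replicates above 15%; inconclusive means exactly half above 15%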;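 further: 0% = DMSO wells and 100% = Ran loaded with GDP instead of GTP; wells of about 40 µL received 100 nL stock; the first replicate is given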
# Beta cell apopt: beta cell apoptosis inhibition; INS-1E cytokine-induced death, ATP luminescence, 48 h; percent of positive-control rescue, neutral wells zero; protection from apoptosis, % (concentration not given with the values); AID 435005; actives 0.8% (n = 300,000);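 active means all replicates at 75% or more, or half of them and the mean; inconclusive means half reach 75% but not the mean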;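 further: 0% = cytokine-treated negative control wells and 100% = positive control rescue; higher means more ATP so stronger rescue from cytokine killing; wells of about 40 µL received 100 nL stock; the first replicate is given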
# T cruzi inh: T. cruzi replication inhibition. T. cruzi beta-gal in NIH3T3, luminescence, 90 h. actives 1.4% (n = 300,000). inhibition, % (no concentration beside the values);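 active means mean inhibition across valid replicates above about 55%, limit read from the data; inconclusive means mean below that limit but half or more replicates reach it; inactive means mean below it, under half of replicates reach it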;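 further: signal also drops with host cell toxicity which is not excluded here; 0% = plate median of DMSO wells and 100% = zero luminescence signal; higher percent means less beta-gal luminescence so fewer parasites; stock transfer was 50 nL into about 50 µL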
# LANA-H2B inh: blocks KSHV LANA binding to histone H2A/H2B. cell-free LANA-H2A/H2B peptide, fluorescence polarization. inhibition, % (test concentration not listed). actives 0.6% (n = 320,000). AID 2629; in the data active means inhibition mostly above about 10%, no sharp cut-off; inactive means mostly below about 6.7%;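 further: stock transfer was 7.5 nL into about 10 µL; 0% = median of vehicle wells and 100% = median of positive control wells; one replicate is shown; the record names a cut of 25% in any replicate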
# Calb FLC: affects C. albicans growth with fluconazole; C. albicans CaCi-2 (fluconazole-resistant clinical isolate) + fluconazole, Alamar Blue growth, 48 h; growth inhibition, % (no concentration beside the values); actives 0.57% (n = 300,000); AID 1979;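 active means most replicates above 75%; inconclusive means exactly half above 75%; inactive means most below 75%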;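 further: all wells also contain fluconazole at 8 µg/ml as a sub-toxic cotreatment; 0% = median of DMSO wells and 100% = median of geldanamycin control wells; wells of about 8 µL received 7.5 nL stock; the first replicate is given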
# UCH37 inh: human UCH37 deubiquitinating enzyme inhibition | inhibition, % (test concentration not listed) | AID 588478 | actives 0.33% (n = 330,000) | purified proteasome/UCH37, Ub-AMC cleavage fluorescence | Q9Y5K5;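 active means mean of two replicates above 20%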;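 further: 0% = compound-free wells with enzyme and 100% = wells lacking proteasome; stock transfer was 100 nL into about 20 µL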
# Target sequence (Q9Y5K5 whole entry, looked up): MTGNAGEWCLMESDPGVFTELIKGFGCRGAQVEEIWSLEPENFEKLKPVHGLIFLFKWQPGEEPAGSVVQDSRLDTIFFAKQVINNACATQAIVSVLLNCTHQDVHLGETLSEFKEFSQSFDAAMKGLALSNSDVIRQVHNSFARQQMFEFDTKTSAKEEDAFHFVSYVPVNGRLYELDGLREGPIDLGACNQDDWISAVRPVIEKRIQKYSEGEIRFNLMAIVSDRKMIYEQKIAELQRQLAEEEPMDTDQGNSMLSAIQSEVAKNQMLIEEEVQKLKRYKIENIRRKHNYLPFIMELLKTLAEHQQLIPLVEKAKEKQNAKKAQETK
#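 Material: human UCH37 enzyme supplied as purified proteasome complex. Measure: % inhibition of Ub-AMC cleavage fluorescence. Medium: pH 7.4 Tris-HCl (50 mM) with ovalbumin, ATP-MgCl2, DTT. Times: 30 min preincubation with enzyme, 25 min cleavage at room temperature. Detection: AMC fluorescence intensity at 355/460 nm.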
# Bfl-1 A1 inh: inhibitors of the anti-apoptotic protein A1, read as caspase activation. caspase activation, % (test concentration not listed). actives 0.066% (n = 330,000). MEF A1-2A-BIM cells, Caspase-Glo 3/7 luminescence, 3 h; percent of clofoctol response, vehicle zero. AID 2462;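 active means over half of replicate activation scores above 10%, or exactly half above 10 with the replicate mean above 10; inconclusive means replicate mean below 10 yet half the replicates above 10; inactive means over half of replicates below 10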;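 further: wells of about 30 µL received 50 nL stock; many hits fall short of the cut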
# The depositor's hits bear a star; i = inactive; ? = inconclusive; . = not tested or not shown.
SMILES,B2AR ag,RanGTP-Impb inh,Beta cell apopt,T cruzi inh,LANA-H2B inh,Calb FLC,UCH37 inh,Bfl-1 A1 inh
CCN(CC)P(=O)(Nc1ccc([N+](=O)[O-])cc1)c1c(C)nn(CCC#N)c1NC(=O)c1ccc(Cl)cc1 (configuration not stated),5,-2.4,-1,-2,-1.8,7,7.4,-0.2
COC(=O)c1cc(NC(=O)Cc2ccccc2[N+](=O)[O-])ccc1Cl,6,?,5,0,-0.4,24,0.3,2.0
CC(C)Cc1cc(C(=O)NCc2ccco2)no1,-2,0.5,-3,-2,1.2,3,0.6,-1.3
O=C(NCCCN1CCCC1=O)C1CCN(S(=O)(=O)c2cc(C(F)(F)F)ccc2Cl)CC1,-10,.,4,.,6.3,.,3.9,0.2
CC(C)[C@H](NC(=O)c1ccccc1)C(=O)OCC(=O)Nc1ccc(Cl)cc1C(F)(F)F,-3,-6.7,2,-11,0.1,-19,3.8,-0.2
CCn1cc(CN2CCN(Cc3ccccc3)C(CCO)C2)c2ccccc21 (configuration not stated),13,1.4,.,32,5.1,-15,6.3,-0.5
O=C(CCCn1c(=S)[nH]c2ccc(Br)cc2c1=O)NCc1ccccn1,-12,4.5,9,0,7.7,-6,-1.1,0.4
Cc1cc(Cl)ccc1NC(=S)NCCN1CCOCC1,1,?,-1,7,-0.5,-10,2.8,-0.4
COc1cc(C(=O)NC2CCCC2)c(Br)c(OC)c1OC,-1,-0.9,-5,-18,2.4,-7,5.0,0.5
O/N=C1/CCCCC1c1ccccn1 (configuration not stated),-1,-1.2,-6,-13,0.1,-2,.,-0.5
Cn1c(N)c(C(=O)COC(=O)c2cc(S(=O)(=O)N3CCOCC3)ccc2F)c(=O)n(C)c1=O,11,.,-5,.,1.9,.,2.0,1.4
O=C(NCc1ccccc1)c1ccc2c(c1)C(=O)N(Cc1ccncc1)C2=O,-3,-0.6,1,-7,-1.7,-5,4.9,-0.3
O=C(NC1CCCC1)C1CCN(C(=O)c2ccc(Cl)cc2)CC1,10,2.4,-3,-5,-0.8,-3,3.3,0.4
Cc1cccc(NC(=O)c2nc[nH]c2C(=O)NCc2ccccc2)c1,-4,.,-5,.,-4.8,.,-1.0,-0.2
CC(=O)c1sc(NC(=O)c2c(F)cccc2F)nc1-c1ccccc1,0,?,-1,0,4.6,32,5.1,-0.1
O=C(Nc1nnc(SCc2ccc(F)cc2)s1)c1ccccn1,12,3.9,.,42,.,103*,-2.3,.
CCC(=O)N/C(N)=N/c1nc(C)c2cc(C)c(C)cc2n1,-6,13,31,43,-0.4,-4,-1.1,?
S=C(NCCN1CCOCC1)Nc1ccc(Br)cc1,1,1.8,3,-32,-3.4,-10,3.3,-0.8
Cc1ccc(-c2c(C(=O)N/N=C/c3ccc(OC(C)C)cc3)nnn2-c2nonc2N)cc1,6,1.0,-1,1,-1.7,2,.,0.1
COC(=O)Cn1c(=O)c2c(nc3n2CCCN3CCc2ccc(OC)c(OC)c2)n(C)c1=O,7,-0.7,1,3,-1.1,4,2.4,1.1
CCOC(=O)c1ccc(-c2ccc(CO)o2)cc1,7,5.4,-4,-32,0.1,-3,i,-6.1
Cc1cccc(N2CCN(C(=O)COc3cccc4c3OC(C)(C)C4)CC2)c1C,3,0.7,4,33,-1.7,-3,0.9,-0.3
Cc1cc(NC(=O)CSCCO)no1,-1,1.7,-1,-2,0.3,5,-1.3,0.0
CCn1cc(C(=O)N2CCc3ccccc32)c(=O)c2cc(S(=O)(=O)N3CCOCC3)ccc21,-2,9.9,-1,11,-1.7,11,5.5,-0.1
Cc1c(C(=O)N2CCCCC2CCN2CCCC2=O)oc2c(F)cccc12 (configuration not stated),2,-1.3,-3,-2,3.4,-1,1.7,-0.6

# Grouped by structure, the compounds so far containing a furan ring, fused or not (3)
SMILES,B2AR ag,RanGTP-Impb inh,Beta cell apopt,T cruzi inh,LANA-H2B inh,Calb FLC,UCH37 inh,Bfl-1 A1 inh
CC(C)Cc1cc(C(=O)NCc2ccco2)no1,-2,0.5,-3,-2,1.2,3,0.6,-1.3
CCOC(=O)c1ccc(-c2ccc(CO)o2)cc1,7,5.4,-4,-32,0.1,-3,i,-6.1
Cc1c(C(=O)N2CCCCC2CCN2CCCC2=O)oc2c(F)cccc12 (configuration not stated),2,-1.3,-3,-2,3.4,-1,1.7,-0.6

# (continued)
SMILES,B2AR ag,RanGTP-Impb inh,Beta cell apopt,T cruzi inh,LANA-H2B inh,Calb FLC,UCH37 inh,Bfl-1 A1 inh
CCCCNC(=O)c1sc2ncnc(N3CCc4ccccc4C3)c2c1C,0,0.6,8,33,8.7,3,1.9,0.3
Cc1nn(CCO)c2ncc(C(=O)c3cc(F)ccc3O)cc12,2,-0.9,-4,3,-0.1,-1,2.5,0.1
CN(C)C(=O)c1ccc(NC(=O)COc2ccc([N+](=O)[O-])cc2)cc1,1,2.2,3,5,4.0,-3,5.7,1.6
O=C(CN1CCCCC1)Nc1ccc(S(=O)(=O)NC2CCCCC2)cc1,8,-3.7,.,-15,-0.2,1,1.6,0.5
CCc1ccc2c(CN3CCN(S(=O)(=O)c4ccccc4F)CC3)cc(=O)oc2c1,7,.,-3,.,-2.1,.,2.9,0.1
COc1ccc(C#Cc2c(C=O)n(C)c3ccccc23)cc1,9,.,5,.,-6.2,.,-53,0.4
COc1cccc(CC(CC(=O)O)C(=O)Nc2cc(C)ccc2C)c1 (configuration not stated),-1,2.2,2,-7,-3.7,0,2.8,0.0
CCCCc1cc(=O)oc2c(C)c(OCC(=O)N3C[C@H]4C[C@@H](C3)c3cccc(=O)n3C4)ccc12,-14,-0.3,2,20,4.0,2,-0.7,-1.5
CC(=O)C1=C(c2ccc(Br)cc2)C(=O)c2ccccc2C1=O,29,-4.5,107*,55*,.,71,3.4,-0.2
O=C(c1ccccc1)n1nc(-c2ccccc2)nc1NCc1ccco1,13,-0.9,2,-7,-3.5,3,1.4,0.8
Cc1ccc(S(=O)(=O)n2nc(-c3ccco3)nc2SCc2ccccc2)cc1,-18,0.9,1,-5,-2.9,-1,1.3,-0.4
CCn1c2ccc(CC(=O)O)cc2c2cc(CC(=O)O)ccc21,10,7.1,-5,-6,6.6,-19,-7.8,0.7
CNC(=O)COC(=O)c1cccnc1SC,6,4.0,-4,-7,1.4,-2,1.8,0.5
COc1ccc(/C=C/CN2CCN(CCc3ccccc3)C(CCO)C2)cc1 (configuration not stated),-5,5.0,-1,37,-4.4,6,2.8,0.6
COc1ccccc1OCC(=O)NCC1CCCN(C(=O)c2ccccc2C(C)=O)C1 (configuration not stated),-3,-2.0,1,5,-4.7,-7,1.9,1.7
COc1ccccc1NS(=O)(=O)c1ccc2oc(SC3CCOC3=O)nc2c1 (configuration not stated),8,1.2,1,3,-5.5,4,4.7,-0.8
COc1cc(/C=C2\Oc3ccc(C#Cc4ccc(O)cc4)cc3C2=O)cc(OC)c1,-8,.,63,.,-9.3,.,.,-0.3
COc1ccc(NC(=O)CC(C)C)c(OC)c1,10,3.2,-11,-13,1.3,6,2.1,-0.6
COc1cc(C(=O)N(C)CC(=O)Nc2cccc(F)c2)ccc1OCc1ccccc1,1,1.4,-4,7,-2.5,-3,4.5,-0.3
Cc1cc(/C(N)=N/OC(=O)c2ccc(Cl)cc2)no1,4,7.5,-1,-1,0.4,2,4.3,-3.8
Cc1c(NC(=O)COC(=O)c2ccc(S(=O)(=O)N3CCOCC3)cc2)c(=O)n(-c2ccccc2)n1C,-7,2.6,-1,-27,1.1,11,4.0,0.4
CCOC(=O)C(=O)Nc1nnc(Cc2ccc(OC)c(OC)c2)s1,-7,1.8,-6,-9,1.5,-5,0.0,-0.8
O=C(CC1CCC1)Nc1cccc2c([N+](=O)[O-])cccc12,-2,0.5,-2,-6,-5.5,-17,1.8,-0.6
C=CCOc1ccc(/C=C2/C(=O)ON=C2C)cc1OCC,5,2.8,-3,1,4.0,-6,-0.2,0.8
Cc1cccc(CSc2nnc(Cn3c(=O)sc4ccccc43)n2C)c1,-21,-4.9,0,14,8.7,8,3.5,?
# Further compounds follow:
SMILES,B2AR ag,RanGTP-Impb inh,Beta cell apopt,T cruzi inh,LANA-H2B inh,Calb FLC,UCH37 inh,Bfl-1 A1 inh
CCOc1ccc2nc(NC(=O)CCC(=O)c3cccs3)sc2c1,-2,.,0,.,-2.2,.,5.0,-1.2
COCCn1nnnc1C(c1cc2cc(C)ccc2[nH]c1=O)N1CCN(C2CCCCC2)CC1 (configuration not stated),-1,3.3,.,-7,.,10,-34,.
O=C(CSc1nnc(-c2cccnc2)n1C1CCCCC1)NC1CCCC1,-6,?,-1,2,4.5,-9,1.0,1.2
CN(CC(=O)Nc1ccc(F)c(F)c1F)C(=O)C1CCCCC1,1,.,-3,.,-2.6,.,4.0,0.0
N#Cc1cc(-c2ccccc2)nnc1Sc1ccc(F)cc1,1,2.4,-17,4,7.6,-3,1.1,1.4
CC(C)c1ccc(NC(=O)Nc2cnccn2)cc1,-8,1.8,6,-1,5.7,56,5.2,-2.5
O=C(CSC(=S)N1CCCCC1)Nc1nc(-c2ccccc2)c(-c2ccccc2)o1,-1,3.1,-3,-10,1.0,48,1.2,-0.1
O=C(COc1ccc(Br)cc1F)NC1CC1,0,.,-6,.,2.7,.,-2.4,-1.1
O=C(O)CCCC(=O)N1CCc2cc(S(=O)(=O)N3CCc4ccccc43)ccc21,13,6.2,-6,6,-1.5,30,2.5,-0.2
Cc1ccc(C)c(OCCC(=O)OCC(=O)Nc2ccc(N3CCOCC3)cc2)c1,9,?,3,-5,0.8,2,4.7,-0.1
Cc1noc(/C=C/N(C)C)c1S(=O)(=O)N1CCCC(C(=O)NCc2ccccc2Cl)C1 (configuration not stated),-1,-3.6,.,8,-4.8,?,10,-0.4
COc1cc(CCC(=O)N2CCN(c3cccc(C)c3C)CC2)cc(OC)c1OC,31,2.5,-11,-4,1.2,10,4.8,-0.6
Cc1ccc(C(=O)NC(=S)N2CCCC2)cc1,14,1.7,1,-16,-4.4,-12,4.0,-0.3
C=C(C)c1cccc(C(C)(C)NC(=O)Nc2cc(C)ccn2)c1,-3,-1.7,-4,17,-1.2,-18,4.6,0.3
CCc1ccc2nc(NC(=O)C3CCN(c4ncnc5sc(C)c(C)c45)CC3)sc2c1,-1,.,3,.,1.7,.,-0.3,-0.2
Cc1cccc(NS(=O)(=O)c2ccc3[nH]c(=O)[nH]c3c2)c1C,-6,-4.1,2,-6,2.6,-2,5.4,-0.6
CCCCC1=CC2=CC(=O)C(C)(OC(=O)c3cnc4ccccc4n3)C(=O)C2=CO1 (configuration not stated),.,-42,1,-6,-4.2,-2,.,0.5
Oc1ccc(Cl)cc1CNCc1ccc(F)c(F)c1,-5,.,-9,.,-4.1,.,1.6,-0.2
O=C(CC(=O)c1ccccc1O)c1cccc(F)c1,2,?,4,-7,-4.3,1,5.7,-5.2
CC1(C)CC(=O)C=C(Nc2ccc(Cl)c(Br)c2)C1,17,3.0,7,5,2.9,-4,3.3,0.3
Cc1ccc(C)c(S(=O)(=O)c2c(C)cc(C)[nH]c2=O)c1,-3,-2.4,-4,-16,4.4,7,-1.9,0.2
COC(=O)c1ccc(C2C(C(=O)Nc3ccccc3C)=C(C)Nc3ncnn32)cc1 (configuration not stated),-2,5.9,0,-2,2.2,4,0.0,0.7

# Screening results (PubChem)
